Screening results (PubChem)
PINK1 expr mod – A Quantitative High throughput Screen to Identify Chemical Modulators of PINK1 Expression. Potency, µM (doses to about 76.6 µM), for the others: at the top dose activation (PINK1 increase), most hits filed as activators. 410,000 compounds, 0.2% hits. PINK1 immunofluorescence, high-content cytometry, 24 h; active = well fitted activation curve with a large enough effect; inconclusive = small, poorly fitted or top-dose-only effect; inactive = flat fitted curve, though single readings scatter; cell line not stated here;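 note: potency is the fitted concentration of half-maximal effect; % of control where 0% means no effect; nearly all actives have a fitted effect of over 65% in size; a mitochondrial uncoupler was the plate control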
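Stable cell line treated 24 h with compounds at 5 concentrations (CCCP controls), then fixed and immunostained for PINK1 plus nuclear and cell stains; PINK1 immunofluorescence quantified by laser-scanning microplate cytometry.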
TRPML1 ag – qHTS for Agonists of the Human Mucolipin Transient Receptor Potential 1 (TRPML1). TRPML1-expressing cells, Ca2+ dye fluorescence, FDSS; host cell line not named in the record; reference of the full effect not given here. activation, % (no concentration beside the values). 410,000 compounds, 0.12% hits. AID 624414, 2012; in the data active = activation above about 50%; inconclusive = about 30% to 50%; inactive = below about 30%; note: 0% is about no effect; the text of the record puts the active cut at 80%
Target sequence (Q9GZU1 whole entry, looked up): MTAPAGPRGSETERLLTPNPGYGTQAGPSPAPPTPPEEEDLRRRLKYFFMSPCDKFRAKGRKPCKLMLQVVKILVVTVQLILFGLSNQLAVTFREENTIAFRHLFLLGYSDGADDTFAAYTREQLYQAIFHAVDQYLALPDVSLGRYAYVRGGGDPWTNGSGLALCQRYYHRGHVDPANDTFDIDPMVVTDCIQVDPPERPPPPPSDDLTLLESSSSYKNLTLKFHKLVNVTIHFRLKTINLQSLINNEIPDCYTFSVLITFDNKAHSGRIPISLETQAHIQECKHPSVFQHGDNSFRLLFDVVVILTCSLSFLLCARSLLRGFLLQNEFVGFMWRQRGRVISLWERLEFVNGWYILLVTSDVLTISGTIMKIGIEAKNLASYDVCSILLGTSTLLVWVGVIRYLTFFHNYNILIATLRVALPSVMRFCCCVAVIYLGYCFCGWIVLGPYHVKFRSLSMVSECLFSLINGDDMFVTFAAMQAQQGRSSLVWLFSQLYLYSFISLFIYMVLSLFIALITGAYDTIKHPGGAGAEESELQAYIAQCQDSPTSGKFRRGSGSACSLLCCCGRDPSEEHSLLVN
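Cells: TRPML1-DL, 1X Tet inducer, ~16 h at 37 degrees C/5% CO2. Dye: ABD Ca8 no-wash + quencher, 45-90 min RT. Read: 10 s baseline, compound add, 110 s agonist phase; 54-4 EC80 (4uM final), 110 s antagonist phase.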
The depositor's hits bear a star; ? = inconclusive. A portion of the library, so the mix of outcomes need not match the whole.

Start of the data: the first 6 records (preview)
SMILES | PINK1 expr mod | TRPML1 ag
CCCNC(=O)C1CCC(Cn2c(=O)c3sccc3n(CC(=O)N3CCCC(C)C3)c2=O)CC1 (stereo not drawn) | -0.6% | -0.3
Cn1c(=O)c2c(SCC(=O)NCC3CCCO3)nc(-c3ccccc3F)nc2n(C)c1=O (stereo not drawn) | 0.1% | -0.6
COc1ccc(C2=NC(c3ccncc3)=Nc3ccc(Br)cc3N2)cc1 | -0.5% | 2.2
O=C(/C=C/c1ccc(C(F)(F)F)cc1)OC(C(=O)NC1CC1)c1ccccc1 (stereo not drawn) | -0.6% | -0.5
Cn1c(=O)c2nc(SCC(=O)Nc3ccc(OC(F)(F)F)cc3)n(C)c2n(C)c1=O | 0.9% | 1.9
COc1ccc(S(=O)(=O)NCc2cccn2Cc2cc(C)ccc2C)cc1OC | -0.4% | 1.6

The list itself, repeating the preview:
SMILES | PINK1 expr mod | TRPML1 ag
CCCNC(=O)C1CCC(Cn2c(=O)c3sccc3n(CC(=O)N3CCCC(C)C3)c2=O)CC1 (stereo not drawn) | -0.6% | -0.3
Cn1c(=O)c2c(SCC(=O)NCC3CCCO3)nc(-c3ccccc3F)nc2n(C)c1=O (stereo not drawn) | 0.1% | -0.6
COc1ccc(C2=NC(c3ccncc3)=Nc3ccc(Br)cc3N2)cc1 | -0.5% | 2.2
O=C(/C=C/c1ccc(C(F)(F)F)cc1)OC(C(=O)NC1CC1)c1ccccc1 (stereo not drawn) | -0.6% | -0.5
Cn1c(=O)c2nc(SCC(=O)Nc3ccc(OC(F)(F)F)cc3)n(C)c2n(C)c1=O | 0.9% | 1.9
COc1ccc(S(=O)(=O)NCc2cccn2Cc2cc(C)ccc2C)cc1OC | -0.4% | 1.6
Cc1cc2n(n1)CCCN2C(=O)Nc1ccc(F)c(Cl)c1 | 3.5% | 0.5
COc1ccc(/C=C(\C#N)c2nc(-c3ccc(Cl)c(Cl)c3)cs2)cc1OC | 0.9% | 0.2
COc1cc(NC(=O)c2noc3c2CSc2ccccc2-3)cc(OC)c1OC | 5.2% | -0.3
O=C1C(=O)N(C2CCN(C(=O)c3ccc(Cl)cc3)CC2)CCN1Cc1ccc(F)cc1 | 0.9% | -0.3
Cc1cc(F)ccc1S(=O)(=O)Nc1ccc2c(c1)CCCN2C(=O)c1cccs1 | 1.8% | -0.8
Cc1cccc(C(=O)NC2(C(F)(F)F)N=C(c3ccccc3)N(Cc3ccccc3)C2=O)c1 (stereo not drawn) | 2.8% | 0.1
COc1ccc(OC)c(/C=C(\C#N)c2nc(-c3ccc(F)cc3)cs2)c1 | 1.8% | 1.6
Cc1ccc(C)c(S(=O)(=O)NCC(c2ccc(N(C)C)cc2)N2CCOCC2)c1 (stereo not drawn) | -1.7% | -0.5
O=c1c(S(=O)(=O)c2ccccc2)cn(Cc2cccc(F)c2)c2cc(N3CCOCC3)c(F)cc12 | -1.0% | 0.2
CCOC(=O)CNC(=O)N1CCN(c2nnc(C)c3c(C)n(-c4ccc(Cl)cc4)nc23)CC1 | 2.5% | 0.6
Cc1ccc(C(=O)N2CCc3cc(CNS(=O)(=O)c4cccs4)ccc32)cc1 | -1.1% | 1.3
COc1cc(NC(=O)C(CCSC)NS(=O)(=O)c2ccc3c(c2)oc(=O)n3C)cc(OC)c1 (stereo not drawn) | -0.1% | 0.6
Cc1ccc(C)c(Nc2nc3c(S(=O)(=O)c4ccc(Br)cc4)nnn3c3ccsc23)c1 | 1.6% | 0.0
Cc1cc2oc(=O)c(CC(=O)O)c(C)c2c2occ(-c3ccccc3)c12 | -0.2% | -0.2
COc1ccc(-c2nc(Cn3c(SCc4ccccc4F)nc4cccnc43)c(C)o2)cc1 | 4.2% | 0.3
Cn1c(=O)c2c(ncn2CC(=O)Nc2cccc(C(F)(F)F)c2)n(C)c1=O | 1.5% | -0.9
CCOC(=O)c1ccccc1NC(=O)CSc1nccn1Cc1ccco1 | -1.9% | 1.6
Cc1c(C(=O)OC2CCC(C)CC2)[nH]c2c1C(=O)CC(c1ccccc1Cl)C2 (stereo not drawn) | 5.8% | -0.6
Fc1ccccc1N1CCN(c2nnc(C(F)(F)F)c3nnn(Cc4ccccc4)c23)CC1 | 0.4% | 2.0
COc1ccc(Cl)cc1NC(=O)C1CCN(c2nnc(C)c3c(C)n(-c4ccccc4)nc23)CC1 | 0.5% | 1.2
CCOc1ccc(NC(=O)c2cnc(N3CCCC3)nc2C)cc1 | 0.4% | 2.7
Cc1cccc(N2CCN(c3nc4ccc(C)cc4n4cnnc34)CC2C)c1 (stereo not drawn) | -1.8% | 0.2
O=C(NCc1ccccc1Cl)C1CCN(S(=O)(=O)Cc2ccccc2)CC1 | -0.3% | 0.1
CCCOC1(C(F)(F)F)NC(=O)N(c2ccc(Cl)cc2)C1=O (stereo not drawn) | 9.4% | 0.4

Record cards (already shown). Order of values: PINK1 expr mod, TRPML1 ag
`CCOC(=O)c1ccccc1NC(=O)CSc1nccn1Cc1ccco1` is entered as -1.9%, 1.6
`Cn1c(=O)c2c(ncn2CC(=O)Nc2cccc(C(F)(F)F)c2)n(C)c1=O` is entered as 1.5%, -0.9

Next results
SMILES | PINK1 expr mod | TRPML1 ag
Nc1nonc1-c1nc2ccccc2n1CC(=O)Nc1ccccc1C(=O)O | 10.4% | -0.2
CC(=O)c1ccc(NC(=O)C2CCC(CNS(=O)(=O)c3ccc4c(c3)CCCC(=O)N4)CC2)cc1 (stereo not drawn) | 0.4% | -0.3
COc1ccc(-c2nnc(SCC(=O)Oc3cc(C)ccc3C)o2)cc1 | 0.0% | 1.1
CCCN(CCC)CCNC(=O)c1cc2c(=O)oc3ccc(C)cc3c2s1 | 1.8% | -0.8
CCOc1ccc(NC(=O)CCC(=O)N2CC(C)Oc3ccc(C)cc32)cc1 (stereo not drawn) | 2.3% | 2.0
Cc1oc(-c2ccc(Cl)cc2)nc1CN1CCCC(C(=O)NCc2ccccc2)C1 (stereo not drawn) | -0.7% | 0.4
CC(=O)Nc1ccc(S(=O)(=O)N(Cc2ccccc2)Cc2ccccc2)cc1 | 0.3% | 0.9
O=C(CCBr)Nc1cccc2cccnc12 | -1.3% | 1.1
COc1ccc(-c2cn3nc(SCC(=O)Nc4ccc(C)c(Cl)c4)ccc3n2)cc1 | 0.4% | -1.1
Cc1ccc(C)c(Nc2cc(C(=O)NC3CCCCC3)c3ccccc3n2)c1 | 1.7% | 0.8
CCn1ccc2cc(S(=O)(=O)N3CCC(C(=O)NCCc4ccc(C)cc4)CC3)ccc21 | 1.5% | 1.1
O=C(CSc1nc(=O)n(Cc2cccnc2)c2c1CCC2)Nc1cccc(Cl)c1 | 11.8% | 1.0
Cc1cc(=O)n2nc(N3CCC(C(=O)Nc4ccc(Br)cc4F)CC3)sc2n1 | 6.6% | -0.8
Cc1cc(Nc2cccc(Cl)c2)nc2ccc(NC(=O)Cc3c(F)cccc3Cl)cc12 | 0.8% | -0.5
COc1cccc(CNC(=O)CCc2c(C)nc3c4c(C)cc(C)nc4nn3c2C)c1 | 0.5% | -0.2
COc1ccccc1NC(=O)Cn1c(=O)n(Cc2cccs2)c(=O)c2cccnc21 | -0.6% | 0.3
CCOc1ccc(NC(=O)CSc2nnc3c(n2)[nH]c2ccc(S(=O)(=O)N4CCOCC4)cc23)cc1 | 1.2% | 0.1
Cc1cc(N2CCN(c3cccc(C(F)(F)F)c3)CC2)n2nc(-c3ccccc3C)nc2n1 | 0.4% | -0.6
CCOc1ccc(-n2c(SCC(=O)N3CCCCCC3)nc3c([nH]c4ccccc43)c2=O)cc1 | -4.1% | 1.6
Cc1cccc(C(=O)NCc2nnc(SCC(=O)Nc3ccccc3F)n2-c2ccccc2)c1 | -0.5% | 0.6
Cc1ccc(C(CC(=O)NCC2(c3ccccc3)CCCC2)c2ccccc2)c(O)c1 (stereo not drawn) | ? | 4.5
CC(=O)c1cccc(N(C(=O)Cn2nnc3ccccc32)C(C(=O)NCc2ccccc2)c2ccc(F)cc2)c1 (stereo not drawn) | 0.0% | 1.9
CCOC(=O)c1ccc(NC(=O)CC2C(=O)N(c3ccc(C)cc3)C(=O)N2C2CCCC2)cc1 (stereo not drawn) | 4.2% | 1.5
CCOc1ccccc1CNC(=O)c1c(C)oc2ncnc(N3CCOCC3)c12 | -6.9% | 2.6
CC1CCN(S(=O)(=O)c2ccc3c(c2)N(CC(=O)N2CCN(c4ccc(Cl)cc4)CC2)C(=O)CO3)CC1 | -1.0% | 3.7
Cc1ccc(Cl)cc1N1CCN(C(=O)c2ccc3c(c2)CCN3S(=O)(=O)c2ccccc2)CC1 | 0.7% | -0.6
Cc1ccc(-c2c(C(=O)N3CCN(c4cccc(C)c4C)CC3)oc(=O)c3ccccc23)cc1 | 1.6% | 0.2
N#Cc1ccccc1Cn1c(=O)n(-c2cccc(C(F)(F)F)c2)c(=O)c2sccc21 | -0.9% | 2.3
Cc1cc(C)cc(C(=O)Nc2nnc3n2CCS3)c1 | -2.8% | 0.5
CCc1ccc(C(=O)COC(=O)C(Cc2c[nH]c3ccccc23)NC(=O)c2ccc(Br)cc2)cc1 (stereo not drawn) | 0.1% | 0.2
CC1=C(c2ccc(Cl)cc2)S(=O)(=O)N=C1N1CCC(C(=O)NCCc2ccco2)CC1 | 3.2% | 1.9
CCN(CC)C(=O)c1sc2c(c1C)c(=O)n(Cc1ccccc1)c(=O)n2Cc1ccccc1C | 1.2% | 1.9
CCc1cccc(NC(=O)CN2C(=O)COc3ccc(S(=O)(=O)Nc4ccccc4)cc32)c1 | -0.3% | 0.1
Cc1ccc2ncc(C(=O)NCCc3ccc(S(N)(=O)=O)cc3)c(=O)n2c1 | 0.4% | -0.7
Cc1cc(C)cc(-n2ccnc2SCC(=O)Nc2cccc3ccccc23)c1 | -3.6% | 1.1
Cc1ccc(NC(=O)Cn2cnc3sc(C)c(S(=O)(=O)N4CCN(c5ncccn5)CC4)c3c2=O)cc1F | 1.9% | -1.4
CCc1cccc(NC(=O)c2cc3c(=O)n(Cc4ccc(OC)cc4)ccc3nc2C)c1 | 2.7% | 1.2
COc1ccc(N2CCN(c3nc4ccc(C)cc4n4nnnc34)CC2)cc1 | 1.4% | 0.8
CCCCCOc1ccc(NC(=O)Cn2c(-c3nonc3N)nc3ccccc32)cc1 | 0.4% | 0.1
COc1ccc(S(=O)(=O)N2CCN(c3ccccc3F)CC2)cc1-c1noc(C)n1 | -0.3% | 2.2
COc1ccccc1NC(=O)c1sc2ncn(Cc3ccccc3Cl)c(=O)c2c1C | -1.6% | -0.1
CC(=O)Nc1nonc1-c1nnc(SCc2ccc(Cl)cc2)n1C | -1.2% | 1.9
CCC(C)(C)NC(=O)C1CCC(CNS(=O)(=O)c2ccc3c(c2)CC(C)N3C(C)=O)CC1 (stereo not drawn) | 1.4% | 0.7
COc1ccc(-c2cc(C(=O)Nc3c(C)nn(Cc4ccccc4C)c3C)no2)cc1 | 5.4% | 0.4
CCOC(=O)c1cc(OC(=O)c2cc(OC)cc(OC)c2)n(-c2ccccc2)n1 | 0.3% | 1.9
O=C(Cn1c(=O)oc2cc(Cl)ccc21)Nc1cccc(C(F)(F)F)c1 | 1.8% | 6.7
Cc1cc(NC(=O)c2ccc3c(c2)N(Cc2cccc(Cl)c2)C(=O)c2ccccc2S3=O)ccc1Br (stereo not drawn) | 0.3% | -0.6
CC(=O)N1CCc2cc(Br)cc(S(=O)(=O)CCC(=O)NCCc3ccc(Cl)cc3)c21 | 0.7% | -0.5
COc1ccc(CNC(=O)CCCn2c(SCC(N)=O)nc3cc4c(cc3c2=O)OCO4)cc1 | 0.1% | 2.9
O=C(/C=C/c1ccc(Cl)cc1)Nc1nc(-c2cccs2)ns1 | 0.8% | 1.6

A draw from above in order of count of non-hydrogen atoms, high to low.
SMILES | PINK1 expr mod | TRPML1 ag
Cc1cc(NC(=O)c2ccc3c(c2)N(Cc2cccc(Cl)c2)C(=O)c2ccccc2S3=O)ccc1Br (stereo not drawn) | 0.3% | -0.6
CCC(C)(C)NC(=O)C1CCC(CNS(=O)(=O)c2ccc3c(c2)CC(C)N3C(C)=O)CC1 (stereo not drawn) | 1.4% | 0.7
COc1ccc(-c2cc(C(=O)Nc3c(C)nn(Cc4ccccc4C)c3C)no2)cc1 | 5.4% | 0.4
COc1ccccc1NC(=O)c1sc2ncn(Cc3ccccc3Cl)c(=O)c2c1C | -1.6% | -0.1
CC(=O)Nc1nonc1-c1nnc(SCc2ccc(Cl)cc2)n1C | -1.2% | 1.9

Following part
SMILES | PINK1 expr mod | TRPML1 ag
O=C(COCc1cc(-c2ccc3c(c2)OCO3)on1)NCc1ccccc1Cl | 1.3% | 0.8
CCN(CC)S(=O)(=O)c1ccc2c(c1)nc(CN(C)C(=O)Nc1ccc(C)c(Cl)c1)n2C | 5.0% | 1.3
O=S(=O)(c1ccccc1)c1nc(-c2cccs2)oc1SCc1ccc(F)cc1 | -0.4% | -1.1
COc1ccc(C2C(C(=O)Nc3ccccc3)=C(C)Nc3nc(-c4ccc(Cl)cc4)nn32)cc1 (stereo not drawn) | -0.6% | -0.3
COc1cc(C2CC(=O)Nc3c2c(=O)[nH]c2nc4ccccc4n32)ccc1O (stereo not drawn) | 0.7% | 1.0
CCCn1c2ccccc2c2cnn(CC(=O)NCCc3ccc(OCC)cc3)c(=O)c21 | 4.8% | 3.2
CCc1ccccc1NC(=O)CSCc1cnn(-c2ccccc2)c1-n1cccc1 | -0.7% | -0.3
CCn1c(=N)c(C(=O)NCc2ccccc2)cc2c(=O)n3cccc(C)c3nc21 | 0.7% | -0.7
C(=C\c1c[nH]c2ccccc12)/c1ccc2ccccc2n1 | 2.5% | 15.6
